TRPML1 blocker = blocks the human TRPML1 channel. TRPML1-inducible cells, Ca2+ dye fluorescence, FDSS; hits give low values; inhibition of EC80 agonist-evoked calcium signal. activity change, negative = inhibition, % (no concentration beside the values). actives 0.02% (n = 390,000); in the data active means activity change below about -50%; inconclusive means about -30% to -50%; inactive means above about -30%;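 also: stimulus is agonist 54-4 at its EC80 concentration; % is scaled to controls: 0 for no effect and ±100 for the full control effect; compound concentration not given in the record; the text of the record puts the active cut at -80%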
Target sequence (Q9GZU1 whole entry, looked up): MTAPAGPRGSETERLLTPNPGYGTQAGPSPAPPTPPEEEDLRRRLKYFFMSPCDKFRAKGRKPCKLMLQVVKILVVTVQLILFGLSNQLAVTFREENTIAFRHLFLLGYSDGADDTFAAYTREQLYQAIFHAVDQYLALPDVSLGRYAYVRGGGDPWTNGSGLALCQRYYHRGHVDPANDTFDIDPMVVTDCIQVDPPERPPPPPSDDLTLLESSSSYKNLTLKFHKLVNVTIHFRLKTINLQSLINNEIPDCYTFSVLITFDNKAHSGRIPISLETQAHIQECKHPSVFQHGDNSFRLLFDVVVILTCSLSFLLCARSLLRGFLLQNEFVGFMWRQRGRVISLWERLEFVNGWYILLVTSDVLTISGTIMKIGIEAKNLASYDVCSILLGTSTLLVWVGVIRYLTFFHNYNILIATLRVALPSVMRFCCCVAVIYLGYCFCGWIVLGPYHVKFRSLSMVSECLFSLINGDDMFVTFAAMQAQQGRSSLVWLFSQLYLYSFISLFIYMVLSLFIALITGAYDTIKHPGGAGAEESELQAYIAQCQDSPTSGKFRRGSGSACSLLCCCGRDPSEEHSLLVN
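Calcium fluorescence in TRPML1-DL cells induced overnight with Tet: a 110 s read after compound pin addition, then a 110 s antagonist read after challenge with 54-4 at 4 uM final (EC80).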
ClpP mod = qHTS Assay for Activators of ClpP | AID 651965, 2013 | ATP-dependent Clp protease proteolytic subunit (Bacillus subtilis (strain 168)), P80244 | Potency, µM (top dose mostly 57.5 µM), without a hit: top-dose activity change, negative = active | actives 1.9% (n = 340,000) | purified B. subtilis ClpP, FRET peptide cleavage, 20 min; active = well fitted falling curve with a large enough effect; inconclusive = small, poorly fitted or top-dose-only effect; inactive = no such curve, though single readings can be large or run the other way; also: potency is read from the fitted curve at half-maximal effect; the source files actives as falling curves though it sought activators and does not explain the sign; nearly all actives have a fitted effect of over 65% in size; many hits overshoot -100%
Target sequence (P80244 whole entry, looked up): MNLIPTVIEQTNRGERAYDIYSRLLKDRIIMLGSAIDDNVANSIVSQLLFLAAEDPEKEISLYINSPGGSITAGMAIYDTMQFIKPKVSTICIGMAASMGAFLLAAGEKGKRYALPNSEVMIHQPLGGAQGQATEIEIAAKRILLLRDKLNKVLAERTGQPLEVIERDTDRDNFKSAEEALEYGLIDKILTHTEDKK
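FRET quenching reversal measured ClpP activation: 10 microg/mL B. subtilis ClpP at pH 8 with the FRET-FV decapeptide, read at 430 nm after 320 nm excitation. The 20-min minus 0-min signal was scaled between DMSO/no-enzyme wells and ADEP (5.8 microM final).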
Starred values were filed as active, the others as inactive; ? = inconclusive. These rows are one share of the data (hit frequency here may not be typical).

SMILES	TRPML1 blocker	ClpP mod
COc1ccc(N2CC(NC(=O)C3CC3)CC2=O)cc1 (stereo not drawn)	-4.8	0.4%
Cc1cc(C)cc(NC(=O)C2CC(=O)N(c3ccccc3)C2)c1 (stereo not drawn)	-1.6	-0.9%
COc1ccc(OC)c(NC(=O)CCn2cccn2)c1	-12.0	0.2%
CCCCN(C)CCCNC(=O)Cn1ncc2c3ccccc3n(Cc3ccccc3F)c2c1=O	-18.5	?
CCc1ccc(C2=CC(c3c(F)cccc3Cl)n3c(nc4ccccc43)N2)cc1 (stereo not drawn)	38.0	0.0%
Cc1c(Cl)cccc1NC(=O)CCOc1ccccc1	-10.4	-1.6%
COc1ccc(-c2nc(SCC(=O)N3CCN(c4ccc(F)cc4)CC3)n[nH]2)cc1	-12.5	-1.1%
NC(=O)C1CCN(C(=O)Cn2c(-c3cccs3)cc3ccccc32)CC1	19.5	31.6µM*
CCOC(=O)c1ccc(CN(Cc2ccc(OC)cc2)S(=O)(=O)c2cccc(C(F)(F)F)c2)cc1	30.6	-2.2%
CCc1ccc(-n2c(=O)c3c4c(sc3n(CC(=O)c3ccc(F)cc3)c2=O)CCC4)cc1	4.5	1.8%
O=C(NCCc1ccccc1)c1cc(-c2ccccc2)nc2n[nH]c(-c3ccccc3)c12	-15.6	28.2µM*
Cc1ccc(-c2noc(-c3ccc(N4CCOCC4)c([N+](=O)[O-])c3)n2)cc1	-13.1	-0.4%
CCOC(=O)c1cccc(Nc2ccc3cc(S(=O)(=O)N4CCCCC4)ccc3n2)c1	-23.2	5.6%
CCOc1ccc(NS(=O)(=O)c2ccc3c(c2)CCCN3C(=O)C2CCC2)cc1	10.9	-3.8%
Cc1ccc2oc(-c3cc(NC(=O)c4oc5ccccc5c4C)ccc3Cl)nc2c1	?	?
Cc1cc(S(=O)(=O)NC(=O)[C@H]2O[C@@H](n3cnc4c(N)ncnc43)[C@H](O)[C@@H]2O)ccc1Br	2.9	1.5%
Cc1nnc(N2CCCC(C(=O)NCCc3ccccc3)C2)c2nn(-c3ccccc3)c(C)c12 (stereo not drawn)	-3.5	4.4%
COc1cccc(-c2cnc3c(NC(C)=O)cc(-c4ccc(S(C)(=O)=O)cc4)cn23)c1	97.3	-15.3%
CCOc1ccc(NC(=O)NC(CC)Cn2nnc3ccccc3c2=O)cc1 (stereo not drawn)	-24.5	0.8%
CCc1ccc(CN(Cc2ccco2)C(=O)c2ccc(OC)cc2)cc1	15.1	0.1%
Cc1nc2nc(C(F)(F)F)[nH]n2c(=O)c1Cc1ccccc1	-6.3	0.2%
CC1CCC(NC(=O)c2ccc3c(c2)N(Cc2ccccc2)C(=O)c2ccccc2S3=O)CC1 (stereo not drawn)	30.5	?
Cc1ccc(-c2noc(CCC(=O)Nc3ccc(F)cc3Cl)n2)cc1	-7.5	-0.7%
Cc1cccc2sc(N(CCCN(C)C)C(=O)COc3ccccc3)nc12	9.3	-2.1%
Nc1nonc1-c1nc2ccccc2n1Cc1cccc(Cl)c1	-25.0	-2.0%
Cc1cccc(OCC(=O)N(Cc2ccccc2)c2ccccn2)c1	-19.4	2.5%
Cc1cccc(NC(=O)Cn2c(=O)n(CCC(=O)N3CCc4ccccc4C3)c(=O)c3ccccc32)c1	-4.3	-8.4%
CCc1ccc(CNC(=O)c2cc3c(=O)n(Cc4cccs4)ccc3nc2C)cc1	-9.6	4.1%
CCCCNc1nc(Oc2ccc(=O)n(-c3ccccc3)n2)nc(N(C)C)n1	2.1	-0.2%
Cc1cc(C)cc(NC(=O)CCCc2nc(-c3ccco3)no2)c1	-6.1	-3.1%
CCc1ccc(NC(=O)CN2C(=O)C(=O)c3ccccc32)cc1	7.6	0.6%
CC1CCN(S(=O)(=O)c2cn(CC(=O)Nc3cccc(C(F)(F)F)c3)c(=O)c3ccccc23)CC1	-15.9	-19.4%
Cc1cccc(N2CCN(C(=O)c3[nH]c(C(F)(F)F)nc3-c3ccccc3)CC2)c1C	-7.6	0.0%
COc1ccccc1OCc1nc2ccccc2n1Cc1ccccc1	-2.1	-0.9%
Cc1oc2cc3oc(=O)c(CCC(=O)NCCc4ccccc4F)c(C)c3cc2c1C	-1.2	-21.4%
O=C(Nc1cccc(Cl)c1)C1CCCN(c2ncnc3c2nc2n3CCCCC2)C1 (stereo not drawn)	4.3	-1.7%
CC1=C(c2ccc(F)cc2)S(=O)(=O)N=C1N1CCC(C(=O)NCCc2cccc(C)c2)CC1	20.1	-0.3%
Clc1ccc(Nc2nc(-c3ccccc3)c3ccccc3n2)c(Cl)c1	-1.5	-7.8%
CCC(C(=O)NCCc1ccc(OC)c(OC)c1OC)n1nc(C)c2sc3ccccc3c2c1=O (stereo not drawn)	24.5	-10.5%
O=C(NCc1cccc(Cl)c1)c1cnc(N2CCOCC2)c2ccccc12	9.3	-8.6%
CCNC(=O)C1(C)CCN(C(=O)c2cc(OC)c(OC)c(OC)c2)C1 (stereo not drawn)	-9.8	-0.4%
CC1(C(=O)NS(=O)(=O)c2cccc(C#N)c2)CCN1C(=O)Cc1ccccc1 (stereo not drawn)	1.1	-0.9%
CC(C)(C)OC(=O)N1CCC(c2c(C(=O)N3CCCCC3)cnn2-c2ccc(F)cc2)CC1	-7.8	-3.1%
Cc1cc(NC(=O)CSc2nc3c([nH]c4ccccc43)c(=O)n2-c2cccc(Cl)c2)no1	36.6	-18.9%
COc1ccc(NC(=O)c2ccc(NC(=O)CCS(=O)(=O)c3cccs3)cc2)cc1OC	11.1	2.0%
CCN(C(=O)CSc1nnc(-c2cc3occc3n2C)n1-c1ccccc1C)c1cccc(C)c1	25.7	-0.1%
Cc1cccc(NC(=O)CN2C(=O)CC(c3ccccc3)Sc3ccccc32)c1 (stereo not drawn)	-21.3	1.1%
COc1ccc2nc3sc(C(=O)N4CCN(c5ccccc5)CC4)cc3cc2c1	30.6	-2.5%
CCCC1=Nc2cc(C(=O)NC3CCCCC3)ccc2Sc2ccc(C)cc21	7.2	-0.7%
Cc1ccc2[nH]c(C)c(CCNC(=O)c3cc4cc(Br)ccc4oc3=O)c2c1	-17.8	4.3%
CC1CCc2nc3ncn(Cc4ccccc4C#N)c(=O)c3cc2C1 (stereo not drawn)	-19.2	-3.6%
COc1ccc(OC)c(-c2cc(C(=O)Nc3cccc(Cl)c3C)no2)c1	-0.8	3.7%
CCN(c1cccc(C)c1)S(=O)(=O)c1ccc2[nH]cc(C(=O)NCCCOC)c(=O)c2c1	3.5	-21.2%
CCN(Cc1ccccc1)c1ncnc2c1nnn2C	-16.1	-3.5%
Cc1ccc(S(=O)(=O)c2nc(-c3cccs3)oc2N2CCCCC2)cc1	-7.5	-4.2%
CC(C)n1cc2c(c1-c1ccccc1Cl)c(=O)n(C)c(=O)n2C	1.2	-16.1%
Cc1cc2n(n1)CCCN2C(=O)Nc1ccc(F)c(Cl)c1	?	-1.5%
COc1ccc2c(CN3CCN(c4ccc(Cl)c(Cl)c4)CC3)cc(=O)oc2c1	-10.6	?
Cc1ccc(NC(=O)c2ccc3nc(Cc4ccccc4)oc3c2)cc1F	-24.1	31.3%
COc1cc2c(cc1OC)C(COc1ccc(F)cc1)N(C(=O)C(C)C)CC2 (stereo not drawn)	0.3	0.2%

Next section.
SMILES	TRPML1 blocker	ClpP mod
COc1ccc2c(C)c(CCC(=O)NCc3ccccc3Cl)c(=O)oc2c1C	17.4	4.5%
Cc1cccc(CCNC(=O)c2cc3c(=O)[nH]c4ccc(C)cc4c3s2)c1	32.7	-13.6%
Cc1nc2nc(CNC(=O)c3cccc(F)c3)nn2c(C)c1CCC(=O)Nc1cccc(Cl)c1	4.9	-0.2%
CCOC(=O)c1cccc(NC(=O)C2CCCN(S(=O)(=O)c3cc(Br)cc4c3N(C(=O)CC)CC4)C2)c1 (stereo not drawn)	-20.7	-3.6%
COc1ccccc1OCC(=O)N(Cc1cccs1)C1CCS(=O)(=O)C1 (stereo not drawn)	3.8	-9.3%
Cc1cc(C)c(C(=O)Nc2ccccc2)c(SCC(=O)Nc2ccc(Br)cc2C)n1	10.1	1.8%
COc1cccc(/C=C(\C#N)c2nc3ccc(C)cc3[nH]2)c1	13.0	-13.8%
CCCCN(CC)CCCNC(=O)c1ccc2c(c1)NC(=O)CN2C	-18.5	?
O=C(COc1ccc(Cl)cc1)Nc1ccccc1C(=O)OCc1cc(=O)n2ccsc2n1	-17.3	-12.9%
CCOc1ccccc1CNC(=O)c1ccc2c(c1)nc1n2CCC(C)C1 (stereo not drawn)	4.4	-5.0%
Cc1ccc2c(c1)-c1c(cnn1CC(=O)N1CCN(c3cc(C)ccc3C)CC1)CO2	-11.8	0.6%
CN(C)c1ccc(C(CNS(=O)(=O)c2ccc(F)cc2)N2CCc3ccccc32)cc1 (stereo not drawn)	12.9	-25.9%
COc1ccccc1N1CCN(c2nc3c(S(=O)(=O)c4ccccc4)nnn3c3ccc(Cl)cc23)CC1	2.3	-5.9%
Cc1ccc(S(=O)(=O)NC(=O)C2(C)CCN2C(=O)Cc2ccc(C(C)(C)C)cc2)nc1 (stereo not drawn)	-6.0	-0.2%
Cc1cccc(N2CCN(C(=O)c3c4c(nc5ccccc35)C(=O)N(C3CCCCC3)C4)CC2)c1C	-11.8	0.5%
COc1ccc(SCc2cc(=O)c3ccc(C)c(C)c3[nH]2)cc1	19.6	-1.9%
Cn1c(=O)c2cc(NC(=O)NCc3ccccc3)ccc2n1C/C=C/c1ccccc1	16.2	5.1%
Cc1ccc(N2C(=O)CSC23C(=O)N(CC(=O)Nc2ccc(C)cc2C)c2ccccc23)cc1 (stereo not drawn)	5.9	-1.3%
Cc1ccc(-c2nc(SCCOc3ccccc3C)n3[nH]c(=O)cc3n2)cc1	-0.9	4.1%
Cc1ccc(C)c(Cn2c(=O)c3c(nc4n3CCN4c3ccccc3)n(C)c2=O)c1	-4.2	?

Gathered by group: those above containing a thiophene ring, fused or not (nine)
SMILES	TRPML1 blocker	ClpP mod
NC(=O)C1CCN(C(=O)Cn2c(-c3cccs3)cc3ccccc32)CC1	19.5	31.6µM*
CCc1ccc(-n2c(=O)c3c4c(sc3n(CC(=O)c3ccc(F)cc3)c2=O)CCC4)cc1	4.5	1.8%
CCc1ccc(CNC(=O)c2cc3c(=O)n(Cc4cccs4)ccc3nc2C)cc1	-9.6	4.1%
CCC(C(=O)NCCc1ccc(OC)c(OC)c1OC)n1nc(C)c2sc3ccccc3c2c1=O (stereo not drawn)	24.5	-10.5%
COc1ccc(NC(=O)c2ccc(NC(=O)CCS(=O)(=O)c3cccs3)cc2)cc1OC	11.1	2.0%
COc1ccc2nc3sc(C(=O)N4CCN(c5ccccc5)CC4)cc3cc2c1	30.6	-2.5%
Cc1ccc(S(=O)(=O)c2nc(-c3cccs3)oc2N2CCCCC2)cc1	-7.5	-4.2%
Cc1cccc(CCNC(=O)c2cc3c(=O)[nH]c4ccc(C)cc4c3s2)c1	32.7	-13.6%
COc1ccccc1OCC(=O)N(Cc1cccs1)C1CCS(=O)(=O)C1 (stereo not drawn)	3.8	-9.3%

Going on with the list:
SMILES	TRPML1 blocker	ClpP mod
COc1ccc2c(c1)CCc1c(C(=O)Nc3ccc(C#N)cc3)noc1-2	-12.2	-0.6%
COc1cccc(NC(=O)Cn2cc(S(=O)(=O)N3CCCC3)c(S(=O)(=O)N3CCCC3)c2)c1	6.3	2.3%
CCOc1ccc(C(=O)NCCc2sc(-c3ccc(F)cc3)nc2C)cc1	-9.0	25.1µM*
COc1cccc(CNc2nc3c(-c4cccc(C)c4)nnn3c3ccccc23)c1	16.2	?
Nc1nc(Nc2cccc(C(F)(F)F)c2)sc1C(=O)c1ccccc1	-19.8	-0.2%
COc1ccc(-c2nc(CS(=O)CC(=O)NCc3ccc(F)cc3)c(C)o2)cc1OC (stereo not drawn)	4.2	28.2µM*
COc1cccc(C2C(=O)N(C3CCCCC3)CC(=O)N2CCc2ccc(OC)c(OC)c2)c1 (stereo not drawn)	-13.9	1.3%
CCOC(=O)C1CCN(C(=O)c2ccc3c(c2)N=C(CC)c2cc(C)ccc2S3)CC1	47.7	-4.2%
COc1ccc(CNC(=O)C(=O)NCC(c2ccco2)S(=O)(=O)c2ccc(C)cc2)cc1 (stereo not drawn)	-10.3	1.9%
Cc1ccc(S(=O)(=O)c2cnc(SCC(=O)Nc3ccc4c(c3)OCCO4)[nH]c2=O)cc1C	-1.1	-4.7%
Cc1cnc(C(=O)N(c2ccc(N3CCOCC3)cc2)C2C(=O)Nc3ccccc3N=C2c2ccc(F)cc2)cn1 (stereo not drawn)	-1.6	-1.1%
CCc1ccc2oc(-c3cc(NC(=O)c4cccnc4)cc(C)c3O)nc2c1	-0.7	-1.6%
CCOC(=O)Cn1c(=O)oc2cc(S(=O)(=O)N3CCN(c4cc(C)ccc4C)CC3)ccc21	37.6	0.1%
CC1=C(C(N)=O)C(c2ccccc2F)n2nc(-c3ccc(Cl)cc3)nc2N1 (stereo not drawn)	-0.5	-8.9%
Cc1ccc2nc(-c3ccc(O)cc3)c(Nc3ccc4c(c3)OCO4)n2c1	-0.2	4.3%
COc1ccc2sc(N(Cc3cccnc3)C(=O)C3COc4ccccc4O3)nc2c1 (stereo not drawn)	-17.1	-2.1%
CCN1C(=O)c2ccccc2S(=O)c2ccc(C(=O)N3CCN(c4ccc(F)cc4)CC3)cc21 (stereo not drawn)	22.7	2.4%
O=S(=O)(c1ccc(Cl)cc1)c1nc(-c2cccs2)oc1N1CCCCC1	12.9	-13.8%
